HPGD inh = inhibitors of human 15-hydroxyprostaglandin dehydrogenase (HPGD). P15428. Potency, µM, without a hit: at the top dose activity change, negative = inhibition, hits mostly inhibitors. 4.3% of 150,000 active. purified HPGD, NADH fluorescence kinetic, PGE2 substrate. AID 894; active = well fitted inhibition curve with a large enough effect (not every such curve was filed as active); inconclusive = small, poorly fitted or top-dose-only effect, or another doubt; inactive = no such curve, though single readings can be large or run the other way;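 also: top concentration of the series not given in the record; plate controls included wells without enzyme; inactives centre near -10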
Target sequence (P15428 whole entry, looked up): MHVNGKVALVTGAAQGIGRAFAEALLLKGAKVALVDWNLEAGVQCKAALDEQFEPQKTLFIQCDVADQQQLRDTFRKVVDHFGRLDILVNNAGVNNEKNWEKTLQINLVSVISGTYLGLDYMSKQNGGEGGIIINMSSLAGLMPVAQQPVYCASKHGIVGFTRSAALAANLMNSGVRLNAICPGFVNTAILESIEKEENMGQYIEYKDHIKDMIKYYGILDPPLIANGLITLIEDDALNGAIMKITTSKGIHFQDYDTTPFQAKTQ
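20 nM HPGD preincubated 15 min at room temperature with compound in 50 mM Tris-HCl pH 8, 0.01% Tween 20. Started with 1 mM NAD+ and 30 uM prostaglandin E2; NADH fluorescence (360/450 nm) read 5 times over 30-s intervals, last minus first.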
Numbers without * were called inactive; u = inconclusive; & = joins results of further samples. % is scaled to controls: 0 for no effect and ±100 for the full control effect; potency is read from the fitted curve at half-maximal effect. This is a subset. The share of hits here may be higher or lower than overall.

molecule	HPGD inh
COc1ccccc1CNC(=O)c1ccc(NS(C)(=O)=O)cc1	-11.2%
O=S(=O)(/N=C(/Nc1ccc(F)cc1F)c1ccccc1)c1ccccc1	-14.3%
COc1ccccc1NC(=O)c1nnn(CC(=O)Nc2cccc(SC)c2)c1N	u
Cc1cc(S(=O)(=O)N2CCN(c3ncccn3)CC2)ccc1-n1cnnn1	-11.1%
COc1ccccc1N1CCN(C(=O)c2ccc(CS(=O)(=O)c3ccccc3OC)o2)CC1	-8.0%
COc1ccc2c(=O)c(N3C(=O)c4ccccc4C3=O)coc2c1	-26.1%
C=CCN(CC=C)S(=O)(=O)c1ccc(NC(=S)NC(=O)/C=C/c2ccc(C)cc2)cc1	-13.1%
CCOc1cc(N2CCOCC2)c(OCC)cc1NC(=O)Cc1ccccc1OC	-9.7%
O=C(COc1ccc(Cl)cc1)Nc1nc(-c2cccs2)cs1	-9.8%
Cc1nn(Cc2cccc(C(=O)Nc3ccn(Cc4ccccc4)n3)c2)c(C)c1[N+](=O)[O-]	-7.1%

The results go on:
molecule	HPGD inh
CCC(=O)NC(=S)Nc1ccc(NC(=O)c2ccc([N+](=O)[O-])cc2Cl)cc1	-8.2%
Cc1nc(NC(=O)CCCC(=O)Nc2nc(C)c(C)s2)sc1C	-8.7%
O=C(NCC1CCCO1)c1nc2c(nnn2Cc2ccccc2Cl)c(=O)[nH]1 (stereo unspecified)	12.6µM*
Cc1cccc(-n2nnc(C(=O)NCc3ccccn3)c2N)c1	-14.5%
COCC(=O)Nc1ccc(OCc2ccccc2)cc1	-28.3%
O=C(N/N=C/c1cccs1)C1COc2ccccc2O1 (stereo unspecified)	-26.6%
COc1ccc(C2(C(=O)NC(C)C)CCCC2)cc1OC	-16.8%
NC(=S)N/N=C/c1ccccc1OCCSc1ccc(Cl)cc1	35.5µM*
O=c1c2ccccc2c(C=NCCO)c(O)n1-c1ccccc1	-12.2%
Cc1ccc(OCCSc2ncnc3nc[nH]c23)cc1	-14.1%

The list continues.
molecule	HPGD inh
COc1ccccc1CN1CC(C(=O)NCC2CCCO2)CC1=O (stereo unspecified)	-1.3%
O=C1NC(=O)C(c2ccccc2)(c2ccccc2)N1	-2.8%&-6.5%&-7.7%&-7.2%&-7.3%&-10.1%
COc1cc(C(=O)N(Cc2ccc(F)cc2)C2CCS(=O)(=O)C2)cc(OC)c1OC (stereo unspecified)	-5.0%
CCCC(O)(CCN(C)C)c1ccc(OC)cc1 (stereo unspecified)	4.8%
Cc1ccccc1CSCCNC(=O)CN(c1ccc2c(c1)OCO2)S(C)(=O)=O	-5.0%
COc1cccc2cc3c(=O)n(-c4ccccc4)nc-3oc12	-8.0%
O=C(N/N=C\c1ccc(Cl)cc1)c1sccc1-n1cccc1	-4.8%
O=C(c1cnc2c(c1)COc1ccc(Cl)cc1-2)c1ccccc1O	-16.7%
Cc1sc2ncnc(N3CCOCC3)c2c1C	-3.8%
Cc1nc2nc(-c3ccccc3)[nH]n2c(=O)c1Cc1ccccc1	-27.4%

Other results:
molecule	HPGD inh
O=C(c1ccc(Cl)c(Cl)c1)N1CCC(=O)N(C(COCc2ccc(Cl)cc2)Cc2ccccc2)CC1 (stereo unspecified)	-17.3%
O=C(/C=C/c1cc([N+](=O)[O-])ccc1OC(F)F)Nc1cccc2ccccc12	-0.2%
COc1ccccc1NC(=O)CN(C)S(=O)(=O)c1ccc(F)cc1	-7.5%
CCN(CC)c1ccc(/C=N/NC(=O)CN2CCCc3ccccc32)cc1	u
COc1cccc(CNC(=O)C2=C(C)C(=O)OC23CCC(C)CC3)c1 (stereo unspecified)	-2.7%
c1cnc(Nc2nc(-c3ccc4ccccc4c3)cs2)nc1	-21.2%
O=C(CSc1nc2ccccc2s1)N1CCCCC1	2.82µM*
Cc1cccn2c(=O)c3cc(C(=O)NCCCN4CCOCC4)n(C)c3nc12	-7.7%
COc1ccc(C2CC(c3ccc(OC)cc3)n3nc(NC(=O)c4cccs4)nc3N2)cc1 (stereo unspecified)	-7.4%
COc1cc(C)c(Cl)cc1S(=O)(=O)n1cnc2ccccc21	-6.9%

New compounds follow
molecule	HPGD inh
O=C(c1cccnc1)N1CCN(Cc2cccc(F)c2)CC1	-9.0%
CCc1nc2ccccc2c(C(=O)OCCN2C(=O)c3ccccc3C2=O)c1C	-5.2%
CSc1cnc2c(=O)n(C)c(=O)[nH]c2n1	u
C=CCNc1nc(-c2ccc(O)c(C(N)=O)c2)cs1	-8.4%
CCOc1ccc(OCCCCn2ccnc2)cc1	-7.4%
COc1ccc(C(=O)CSc2nnc(-c3ccc(C)cc3)o2)cc1	-10.9%
Cc1cc(C(=O)CSc2nncs2)c(C)n1-c1c(C)n(C)n(-c2ccccc2)c1=O	-3.1%
Cc1c(Cl)c([N+](=O)[O-])nn1CCCC(=O)Nc1cccc(Cl)c1Cl	-6.3%
CCn1cc(C(=O)NCC2CCCO2)c(=O)c2cc(S(=O)(=O)N(C)C)ccc21 (stereo unspecified)	-10.8%
COCc1cc(C)nc(OCC(=O)N/N=C/c2ccc(O)cc2)c1C#N	-9.0%

New compounds follow.
molecule	HPGD inh
COc1cc(/C=N/NC(=O)c2ccc(F)cc2)ccc1OC(=O)c1ccco1	-13.6%
Cn1cccc1Cc1nnc(SCC(=O)NCC2CCCO2)n1CCc1ccccc1 (stereo unspecified)	-12.8%
COc1ccc(NS(=O)(=O)c2cc(C)ccc2C)cc1	14.1µM*
Cc1ccc2[nH]c(=O)c(CN(CCCN3CCOCC3)C(=O)Nc3cccc(Cl)c3)cc2c1	-2.3%
O=C(c1ccc(Cl)c(S(=O)(=O)NCc2ccco2)c1)N1CCN(c2ccccc2F)CC1	3.0%
Cc1c(OCc2nn[nH]n2)ccc2c3c(c(=O)oc12)CCCC3	u
Cc1nn(CCOc2ccccc2)c(=O)n1-c1cccc(F)c1	-7.6%
O=C(COC(=O)CCc1c[nH]c(=O)[nH]1)Nc1cccc(Cl)c1	-29.9%
Cc1ccc(N=C2NC(=O)S/C2=C\c2ccco2)cc1	22.4µM*
OC[C@@H]1[C@@H](c2ccccc2)C(c2cccc(Cl)c2)=NN1c1ccccc1	u

New compounds follow:
molecule	HPGD inh
COC(=O)c1ccc(C(NC(=O)OCc2ccccc2)/C(=C/[C@@H](C)C(=O)NCc2ccc(OC)c(OC)c2)c2cccnc2)cc1 (stereo partly specified)	-5.1%
Cc1onc(-c2ccccc2Cl)c1C(=O)Nc1cccc2cccnc12	-4.9%
CCC(C)(C(=O)NC1CCCC1)N(Cc1ccco1)C(=O)c1ccccn1 (stereo unspecified)	-5.4%
O=C(COC(=O)C1CCN(S(=O)(=O)c2cccs2)CC1)c1cc2ccccc2o1	u
CC1Cc2nc(SCC(=O)Nc3ccc4c(c3)OCO4)n(CCc3ccccc3)c(=O)c2S1 (stereo unspecified)	-27.2%
O=C(c1ccccc1Oc1nnnn1-c1ccccc1)N1CCOCC1	-3.3%
COc1cc2c(cc1NC(=O)CSc1nccn1C)oc1ccccc12	-29.7%
CC(=O)Nc1nc(-c2ccccc2)ns1	-7.0%
COc1ccc(CN2CCOCC2)cc1	-1.4%
CCN(CC)C(=O)CSc1nnc(-c2cccc(OC)c2)o1	-11.1%

(continued)
molecule	HPGD inh
COC(=O)C1=NN(N=O)C2(CC(=O)N(c3cc(C)cc(C)c3)C2=O)C1 (stereo unspecified)	31.6µM*
Cc1ccc(S(=O)(=O)NCCc2ccccc2)cc1	-6.2%
Cc1cc(C)c2[nH]c(=O)c(CN(CC3CCCO3)C(=S)NCc3ccco3)cc2c1 (stereo unspecified)	-19.1%
CC(c1ccccc1)n1cc(C(=O)NCc2cccnc2)nn1 (stereo unspecified)	-8.8%
Cc1ccc(NC(=O)CCC(=O)OCc2ccc(Br)cc2)cc1	-5.7%
Cc1ccc(S(=O)(=O)/N=C2\CN(C)C(=O)N2C)cc1	-5.6%
COc1ccc(-c2nc3ncccn3c2Nc2ccc3c(c2)OCCO3)cc1	-4.1%
O=[N+]([O-])c1cc(-c2nnc(-c3ccccc3)o2)ccc1Oc1ccc(Cl)cc1	-3.0%
O=C(c1cc2nc(-c3ccco3)cc(C(F)(F)F)n2n1)N1CCN(c2ccccc2)CC1	-9.2%
Cc1cc(C)cc(N2C(=O)C3C4C=CC(C4)C3C2=O)c1 (stereo unspecified)	-4.0%

Next part
molecule	HPGD inh
Cc1ccc(S(=O)(=O)N2CCC(C(=O)Nc3nnc(-c4ccco4)s3)CC2)cc1	-25.3%
O=C(c1ccco1)N1CCN(C(c2ccccc2F)c2nnnn2Cc2cccs2)CC1 (stereo unspecified)	-5.0%
Cc1ccc(NC(=S)N2CCC(c3nc4ccccc4s3)CC2)cc1	-15.4%
Cc1cc(C(=O)CSc2nc3ccccc3c(=O)[nH]2)c(C)n1C	22.4µM*
Cc1cccc(C(=O)Nc2ccc(C(=O)/C=C/c3cccnc3)cc2)c1	u
CCNC(=O)CCCOc1ccc(Cl)cc1Cl	14.1µM*
Cc1ccc(Nc2nnc(C3C(=O)N(C)C4(C)CC3c3cc(Br)ccc3O4)s2)cc1 (stereo unspecified)	-4.5%
Cn1c(=O)c2[nH]c(CCCCC(=O)O)nc2n(C)c1=O	-0.6%
O=c1c2ccccc2nc(SCc2cccc(F)c2)n1-c1cccc(S(=O)(=O)N2CCCC2)c1	-4.2%
COc1cc(-c2cccc([C@H]3[C@@H]4C=CC[C@@H](C)[C@@H]4C(=O)N3Cc3ccccc3)c2)cc(OC)c1OC	-9.4%

Following part.
molecule	HPGD inh
O=C(c1ccc2c3c(cccc13)C(=O)N(O)C2=O)N1CCCCC1	-16.1%
CC1=Cc2ccccc2C(C#N)N1C(=O)c1ccccc1 (stereo unspecified)	-21.8%
COc1cc(C(=O)NCc2ccc(C)cc2)ccc1OCc1c(C)noc1C	1.4%
CCC(C)(C(=O)NC1CCCC1)N(C(=O)c1cnccn1)c1c(C)n(C)n(-c2ccccc2)c1=O (stereo unspecified)	-3.7%
CCn1c(SCC(=O)Nc2cccc(NC(C)=O)c2)nnc1C(C)C	-12.3%
Cc1ccc(-c2csc(NC(=O)c3cccc([N+](=O)[O-])c3)n2)cc1	-2.6%
Cc1ccc(C(=O)c2c[nH]c(C(=O)NCc3cccnc3)c2)cc1	25.1µM*
COC(=O)c1c(C)oc(C)c(C(=O)OC)c1=O	-10.1%
CC1CCN(C(=O)c2cc(Cl)nc3ccccc23)CC1	-3.8%
CC(C)(C)/C(Cn1cncn1)=N\OC(=O)Nc1ccc(Cl)cc1	-6.6%

Continued; it opens with the 2 that closed the last part.
molecule	HPGD inh
CC1CCN(C(=O)c2cc(Cl)nc3ccccc23)CC1	-3.8%
CC(C)(C)/C(Cn1cncn1)=N\OC(=O)Nc1ccc(Cl)cc1	-6.6%
CCCCC(=O)Nc1ccc(NC(=O)c2ccc([N+](=O)[O-])cc2)cc1OC	1.3%
O=[N+]([O-])c1cccc(-c2nnc3c4ccccc4c4ccccc4n23)c1	-8.0%
CC(=O)Oc1ccc(/C=N/NC(=S)Nc2ccccc2)cc1	-7.7%
CC1CC(N(C(=O)C2CC2)c2ccccc2)c2ccccc2N1C(=O)C1CC1 (stereo unspecified)	-4.4%
O=C(NCc1ccc(C(F)(F)F)cc1)C1CC(c2ccccc2[N+](=O)[O-])=NO1 (stereo unspecified)	-19.6%
Cc1cc2oc(=O)c3c(c2cc1OC(=O)c1ccco1)CCCC3	-14.5%
O=C(CSc1ccccn1)Nc1ccc2c(c1)C(=O)c1ccccc1C2=O	-9.5%
Cc1cccc(NC(=O)COc2ccccc2)c1	-15.7%
CCOc1ccc2nc(SCC(=O)N(C)C)[nH]c2c1	-24.0%
COc1ccc(-c2cc(C(F)(F)F)nc(N3CCOCC3)n2)cc1	-28.5%

Going on with the list:
molecule	HPGD inh
COc1ccc2nc(N=Nc3ccc(O)c4ccccc34)sc2c1	-5.7%
CC(C)(C)Oc1ncc(Br)c(OC(C)(C)C)n1	3.2%
O=S(=O)(Nc1ccncc1Cl)c1ccccc1	-14.4%
COCCNC(=O)/C(=C/c1ccccc1Cl)c1ccccc1	-14.3%
COc1ccc(-c2cc(NCc3ccccn3)n3ncnc3n2)cc1	u
CC(C)Cc1nc2oc3c(N4CCN(C)CC4)ncnc3c2c2c1CCCC2	-0.6%
CC(=O)NCCn1c(SCC(=O)OCc2ccccc2)nc2ccccc2c1=O	1.8%
Cc1cccc(NC(=O)CSc2cc(C(=O)c3nccn3C)c3ccccc3n2)c1	-3.0%
CS(=O)(=O)N1CCC2(CCCN(c3ncccn3)C2)CC1	-19.5%
COCC(=O)Nc1nc(-c2ccc(C)cc2)c(C)s1	-0.1%

Carrying on.
molecule	HPGD inh
CCc1c(C)nc2cc(C)[nH]n2c1=O	u
COc1ccc(OC)c(-n2c(-c3cccc(O)c3)n[nH]c2=S)c1	u
Cn1nnc(NC(=O)c2cccc(F)c2)n1	-6.7%
Cc1ccc(S(=O)(=O)Nc2nc3ccccc3nc2NCc2ccc3c(c2)OCO3)cc1C	u
CN(c1ccc(C(=O)N2CCc3ccccc3C2)cc1)S(C)(=O)=O	14.1µM*
C=CCN1C=C2C(=O)C(C)(OC(=O)C3CCCC3)C(=O)C=C2C=C1c1ccsc1 (stereo unspecified)	-9.2%
COc1ccc2sc(C)nc2c1NC(C)=O	-2.1%
COCCN1Cc2cccc(C(=O)Nc3c(C)cc(C)cc3C)c2C1=O	-6.5%

High-throughput results: PubChem BioAssay, National Center for Advancing Translational Sciences (NCATS)
